CBX7 AlphaScr – CBX7 chromodomain binding inhibitors, primary screen, biochemical, AlphaScreen; AlphaScreen His6-CBX7 / biotin-H3K27me3 peptide binding; active compounds read low; normalised signal (fraction of DMSO) (concentration not given with the values); 66,000 tested, 1.1% active; AID 1224903, 2016; in the data active = normalised signal below about 0.5;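 note: 100 nL library stock added to about 20 µL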
Target sequence (O95931 whole entry, looked up): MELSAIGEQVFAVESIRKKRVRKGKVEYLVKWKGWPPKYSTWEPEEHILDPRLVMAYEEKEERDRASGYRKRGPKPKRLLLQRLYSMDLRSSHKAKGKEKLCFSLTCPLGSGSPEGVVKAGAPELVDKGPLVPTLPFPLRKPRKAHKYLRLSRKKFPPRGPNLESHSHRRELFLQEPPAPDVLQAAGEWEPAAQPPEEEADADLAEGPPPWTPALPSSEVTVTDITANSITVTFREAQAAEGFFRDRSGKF
CBX7 AlphaScr z-score – also measured in CBX7 AlphaScr; calls as there; z-score; measured here: z-score of CBX7 signal; some inactives read as strong as hits; reference of the scale not given here;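 same signal on another scale; lower means less binding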
An asterisk follows results filed as active; & = joins results of further samples. This is a subset. The share of hits here may be higher or lower than overall.

SMILES	CBX7 AlphaScr	CBX7 AlphaScr z-score
Cc1ccc(NC(=O)C2CCC(CNS(=O)(=O)c3cccc4cccnc34)CC2)nc1 (stereo not drawn)	1	-0.048
CCCCN(CC)CCNS(=O)(=O)c1ccc2c(c1)CCN2C(=O)C1CCC1	1	0.12
CCOc1ccc(NC2c3ccccc3C(=O)N2Cc2ccccc2Cl)cc1 (stereo not drawn)	0.7	-0.3
COCCNC(=O)c1cc(Nc2cc(OC)ccc2OC)nc2ccccc12	0.88	-1.9
Cc1ccc(-c2nc3ccccn3c2Nc2ccccc2C)cc1	0.58	-3.4
Cc1ccc(CNC(=O)c2nc(-c3ccccc3Cl)oc2C)cc1	0.96	-0.3
O=C(Cn1c(-c2cncs2)nc2ccccc21)Nc1ccccc1Cl	1	0.001
COc1ccc(NC(=O)CC2C(=O)N(c3ccccc3)C(=O)N2Cc2ccc3c(c2)OCO3)cc1 (stereo not drawn)	0.86	-0.63
Cc1ccc(-c2nc3c(cnn3-c3ccccc3)c(=O)n2-c2ccc(C)cc2)cc1	0.94	-2.4
CCCC1=Nc2cc(C(=O)NCCc3ccccc3)ccc2Sc2ccccc21	0.98	-0.23
CCOc1ccc(-n2c(Cc3cc(=O)[nH]c(=O)[nH]3)nnc2SCC)cc1	0.77	-3.5
Cc1cccc(C(=O)Nc2cccc(-c3nc4cc(C)ccc4o3)c2C)c1	1	0.81
COc1ccc(CNc2sc3c(c2C(=O)Nc2ccc(OC)cc2OC)CCCC3)cc1	0.67	-6.5
CC(C)c1ccc(Nc2c3c(nc4ccc(Cl)cc24)CCCC3)cc1	1.1	0.094
CCOCCCNC(=O)Cn1nc(-c2ccc(Cl)cc2)ccc1=O	1	0.77

As a working copy, part of the list above:
SMILES	CBX7 AlphaScr	CBX7 AlphaScr z-score
CCOc1ccc(NC2c3ccccc3C(=O)N2Cc2ccccc2Cl)cc1 (stereo not drawn)	0.7	-0.3
COCCNC(=O)c1cc(Nc2cc(OC)ccc2OC)nc2ccccc12	0.88	-1.9
Cc1ccc(-c2nc3ccccn3c2Nc2ccccc2C)cc1	0.58	-3.4
Cc1ccc(CNC(=O)c2nc(-c3ccccc3Cl)oc2C)cc1	0.96	-0.3
O=C(Cn1c(-c2cncs2)nc2ccccc21)Nc1ccccc1Cl	1	0.001
COc1ccc(NC(=O)CC2C(=O)N(c3ccccc3)C(=O)N2Cc2ccc3c(c2)OCO3)cc1 (stereo not drawn)	0.86	-0.63
Cc1ccc(-c2nc3c(cnn3-c3ccccc3)c(=O)n2-c2ccc(C)cc2)cc1	0.94	-2.4
CCCC1=Nc2cc(C(=O)NCCc3ccccc3)ccc2Sc2ccccc21	0.98	-0.23
CCOc1ccc(-n2c(Cc3cc(=O)[nH]c(=O)[nH]3)nnc2SCC)cc1	0.77	-3.5
Cc1cccc(C(=O)Nc2cccc(-c3nc4cc(C)ccc4o3)c2C)c1	1	0.81
COc1ccc(CNc2sc3c(c2C(=O)Nc2ccc(OC)cc2OC)CCCC3)cc1	0.67	-6.5
CC(C)c1ccc(Nc2c3c(nc4ccc(Cl)cc24)CCCC3)cc1	1.1	0.094
CCOCCCNC(=O)Cn1nc(-c2ccc(Cl)cc2)ccc1=O	1	0.77

The list goes on.
SMILES	CBX7 AlphaScr	CBX7 AlphaScr z-score
Cc1cc(=O)[nH]c(SCc2cn3cccnc3n2)n1	1.1	0.21
Cc1cccc(N2CCN(C(=O)C3CCCN(S(=O)(=O)c4c(C)noc4C)C3)CC2)c1C (stereo not drawn)	1.2	2.7
Cc1ccc(-c2nc(S(=O)(=O)c3ccc(Br)cc3)c(SCC(N)=O)o2)cc1	0.98	-0.13
Cc1ccc(-c2nc3ccccn3c2Nc2ccc3c(c2)OCCO3)cc1	1	-0.017
CCCCCCNc1nc(CC)c2c(c1C#N)CC(C)(C)OC2	1.1	3.1
COc1ccc(-c2cc(C(=O)NC3CC3)c3cc(C(C)C)ccc3n2)cc1	0.96	-0.82
Cc1ccc(C)c(NC(=O)c2cccc3c2C(=O)N(C2CCCCC2)C3)c1	0.88	-1.5
CCCNC(=O)Cn1cnc2sc(C(=O)Nc3ccccc3OC)c(C)c2c1=O	1	0.64
CCc1ccc(OCC(O)CN2CCN(c3ccc(OC)cc3)CC2)cc1 (stereo not drawn)	0.83	-5.6
Cc1nc2ncnn2c(C)c1CCC(=O)Nc1ccccc1Cl	0.96	-0.75
O=c1cc(N2CCN(c3ccc(F)cc3)CC2)[nH]c(=O)n1-c1cccc(Br)c1	1.1	1.1
CCc1ccc(OCC(=O)Nc2ccc3oc(-c4ccc(OC)cc4)nc3c2)cc1	0.99	-0.33
Cc1ccc(S(=O)(=O)C2(C(=O)Nc3ccc(Br)cc3F)CC2)cc1	1.2	3.9
N#CCn1c(=O)n(CCc2c[nH]c3ccccc23)c(=O)c2cccnc21	0.92	-1.7
COc1cc2c(cc1OC)C(c1cc(Cl)ccc1OC)CC(=O)N2 (stereo not drawn)	0.98	-0.86
COc1ccccc1N1CCN(C(c2cccs2)C(C)NC(=O)C(=O)NCc2cccnc2)CC1 (stereo not drawn)	0.96	-0.89
COc1cccc(CNC(=O)c2cnn(-c3ccccc3)c2-n2cccc2)c1	1	0.48
Cc1onc(-c2ccccc2Cl)c1-c1nc(-c2ccc(Br)cc2)no1	1.1	0.79
O=C1CC(c2nc3ccccc3n2Cc2ccccc2Cl)CN1c1ccccc1 (stereo not drawn)	0.85	-1.6
Cc1ccccc1-c1nc(CS(=O)(=O)CC(=O)NC2CCCC2)c(C)o1	1.2	1.4
CCCCNC(=O)c1c[nH]c2ccc(S(=O)(=O)N(C)c3ccc(CC)cc3)cc2c1=O	1.1	0.68
COc1ccc(C2=NOC(C(=O)Nc3ccc(OC)c(OC)c3)C2)cc1 (stereo not drawn)	1	-0.057
CCOC(=O)N1CCC(N2Cc3cccc(C(=O)Nc4ccc(C)cc4)c3C2=O)CC1	0.96	-1.6
CC(C)c1ccc(OCC(=O)Nc2cccc(-c3nc4ccccc4o3)c2)cc1	0.98	-0.024
Cc1ccc2c(c1)N(C(C)C(=O)NCc1cccnc1)C(=O)CO2 (stereo not drawn)	0.97	-0.34
CCOC(=O)C1CCCN(c2c(N3CCC(C)CC3)c(=O)c2=O)C1 (stereo not drawn)	1	-0.1
Cc1cccc(-n2c(CSc3nc4ccccc4n3C)nc3ccccc3c2=O)c1C	1.1	0.42
COc1ccccc1-c1cc(C(=O)N2CCCC2)no1	1	0.16
Cc1c(Cl)cccc1NC(=O)CC1NCCNC1=O (stereo not drawn)	0.97	-0.43
COc1ccc(C(=O)Nc2ccc(S(=O)(=O)Nc3nccc(C)n3)cc2)cc1	0.98	-0.59
CCC1CCCCN1S(=O)(=O)c1ccc2[nH]c(=O)cc(C(=O)NC3CCCCCCC3)c2c1 (stereo not drawn)	0.85	-3
NC(=O)C1CCN(C(=O)Cc2ccc(-n3c(=O)[nH]c4ccsc4c3=O)cc2)CC1	0.96	-0.99
Cc1ccc(Nc2nc(-c3c(C)nc4ncccn34)cs2)cc1	0.82&0.68	-3.4&-0.36
CC1CCN(S(=O)(=O)c2ccc3[nH]c(=O)cc(C(=O)NC4CCCC4)c3c2)CC1	0.95	-0.99
CN(CC(=O)NCc1ccc(Cl)cc1)S(=O)(=O)c1ccc2c(c1)n(C)c(=O)c(=O)n2C	0.99	-0.21
Cc1cc(N2CCN(C)CC2)nc(-c2ccccc2O)n1	1.1	2.2
COc1ccccc1CNC(=O)CC1C(=O)N(Cc2ccccc2)C(C)c2nc3ccccc3n21 (stereo not drawn)	1	0.78
Cc1ccc(N2C(=O)c3ccccc3C2Nc2cc(C)cc(C)c2)nc1 (stereo not drawn)	0.93	-2.5
O=C(Nc1ccc(F)cc1F)c1cc(-c2ccc3c(c2)OCO3)on1	1.1	0.52
CCC(=O)N1CCc2cc(S(=O)(=O)Nc3ccc(C)c(F)c3)ccc21	0.99	-0.22
CCN(CC)C(=O)Cc1c(C(=O)O)[nH]c2ccccc12	1.1	1.7
Cc1ccc(-n2c3c(cc(C(=O)Nc4cccc(C)c4)c2=O)C(=O)CC(C)(C)C3)cc1	0.95	-0.58
CCOc1ccc2c(c1)c(=O)c(S(=O)(=O)c1ccc(C)cc1)cn2Cc1cccc(C)c1	0.93	-2.6
COc1ccc(S(=O)(=O)N2CC=C(C(=O)NCc3ccc(C)cc3)CC2)cc1	0.98	-1
CC(C)NC(=O)c1cc(-c2ccccc2)nc2ccccc12	1.1	0.35
CCOc1ccc(S(=O)(=O)c2cn(Cc3cccc(Cl)c3)c3ccc(OCC)cc3c2=O)cc1	0.97	-1
CCOc1ccc2nc(N3CCC(C(=O)Nc4ccc(Br)cc4F)CC3)sc2c1	1	1.5
O=C(NCc1cccnc1)c1cc(-c2ccc3c(c2)OCO3)on1	0.93	-1.4
Cc1ccc(NC(=O)Cn2cnc3ccccc3c2=O)cc1	0.99	-0.39
CC(C)c1ccc(CNC(=O)c2nc3ccccc3[nH]2)cc1	0.85	-0.6
O=C(c1cc2nc(-c3ccc(Cl)c(Cl)c3)cc(C(F)(F)F)n2n1)N1CCN(Cc2ccccc2)CC1	0.97	-0.24
COc1ccccc1-c1nnc(N)s1	0.91	-2.1
CCOc1ccc(-n2cnnn2)cc1S(=O)(=O)NCc1ccccc1	1	0.37
CCC(Oc1ccc2c(c1)C(=O)CC(C)(C)O2)C(=O)NCCN1CCCCCC1 (stereo not drawn)	0.86	-1.5
CCOC(=O)c1c(-c2ccc(C)cc2)csc1NC(=O)COc1ccc(F)cc1	1.1	0.77
O=C(CSc1nccn1-c1ccc(F)cc1)Nc1cccc(Cl)c1	0.67	-0.44
Cc1ccc(Cn2nnc3c(=O)n(C/C=C/c4ccccc4)cnc32)cc1	0.91	-1.5
Fc1cccc(F)c1-c1noc(-c2cccs2)n1	0.99	-0.093
COc1ccc(C(=O)NCc2nnc(SCC(=O)NCc3ccc(F)cc3)o2)cc1OC	0.98	-0.57
Cc1ccc(C)c(OCc2nc(-c3ccccc3Cl)no2)c1	1.5	5
New compounds follow
SMILES	CBX7 AlphaScr	CBX7 AlphaScr z-score
COc1ccc(CCNC(=O)C2CCN(S(=O)(=O)c3ccc(C)cc3)CC2)cc1OC	0.98	-0.72
CCCCn1c(CCCNC(=O)CCC)nc2ccccc21	1.1	1.2
Brc1ccc(Nc2nc(-c3ccc(Br)cc3)cs2)cc1	0.66	-5.5
CCOc1cc2c(cc1OCC)C(c1ccccc1F)NCC2 (stereo not drawn)	0.82	-2.7
CCOC(=O)C1CCCN(c2c(N3CCC(Cc4ccccc4)CC3)c(=O)c2=O)C1 (stereo not drawn)	0.96	-0.88
Cc1sc2nc[nH]c(=O)c2c1S(=O)(=O)N1CCN(c2ncccn2)CC1	0.98	-0.087
Cc1oc(-c2ccc(Cl)cc2)nc1CN1CCCC(C(=O)NC2CCCC(C)C2C)C1 (stereo not drawn)	1	0.93
CC(C)c1ccc(-n2cnc3cc(C(=O)NCCN4CCOCC4)ccc32)cc1	1.1	1.3
CC1CCCC(NC(=O)C2CCCN(S(=O)(=O)c3cnc[nH]3)C2)C1C (stereo not drawn)	1	0.68
COc1ccc2cc(CCNC(=O)c3ccc(Cl)cc3)c(=O)[nH]c2c1	1.1	2.2
CC1(C(=O)NC2CCCCC2)CCC(=O)N1Cc1cccnc1 (stereo not drawn)	1	0.63
Cc1c(C(=O)NCc2ccc3c(c2)OCO3)sc2ncn(C)c(=O)c12	1	1.4
O=C(NCCN1CCOCC1)c1cc(-c2ccc3c(c2)OCO3)on1	0.97	-0.83
Cc1ccccc1CN1C(=O)c2ccccc2S(=O)c2ccc(C(=O)NCC3CCCO3)cc21 (stereo not drawn)	0.97	-1.4
Cc1ccc(CN2C(=O)CCC2(C)C(=O)NC2CCC(C)CC2)cc1 (stereo not drawn)	0.98	-0.73
CC(=O)N1CCc2cc(S(=O)(=O)NC(C(=O)NC(C)CCc3ccccc3)C(C)C)ccc21 (stereo not drawn)	1.1	4
CC(C)N(Cc1nc(-c2ccc(Cl)cc2)no1)C(=O)CCCN1C(=O)c2ccccc2C1=O	0.92	-1.9
Cc1cc(C)c2oc(-c3cc(NC(=O)c4ccccc4F)ccc3Cl)nc2c1	1	0.48
O=C(C1=CCN(S(=O)(=O)c2ccccc2)CC1)N1CCCCCC1	1	0.65
CCOCCCNC(=O)c1c[nH]c2ccc(S(=O)(=O)N(C)c3ccc(CC)cc3)cc2c1=O	1.2	1.9
CCCCN(C)CCNC(=O)c1cc2c(-c3ccc(OC)c(OC)c3)nn(C)c2s1	0.84	-2.1
CCOc1ccc(Nc2cc(C(=O)NCC(OC)OC)c3ccccc3n2)cc1	0.99	-0.3
CCOC(=O)c1cccc(NC(=O)CC2C(=O)N(c3ccccc3)C(=O)N2Cc2ccc(F)cc2)c1 (stereo not drawn)	1	0.52
Cc1ccc(C(=O)Nc2ccc(-c3nc4cc(Cl)ccc4o3)cc2)cc1Cl	0.94	-1.1
CCCc1c(O)nc(SCCN(CCC)CCC)[nH]c1=O	1	0.47
O=C(CSc1nc(-c2ccc(Cl)cc2)cn1-c1ccc(F)cc1)c1ccccc1	0.98	-0.55
O=C(NC1CCCC1)c1ccc2c(c1)N(Cc1ccccc1Cl)C(=O)c1ccccc1S2	0.99	-0.1
O=C(Nc1nccs1)C(Cc1ccccc1)N1C(=O)c2ccccc2C1=O (stereo not drawn)	0.81	-0.78
CCOC(=O)Cc1csc(NC(=O)COc2ccc(Br)c(C)c2)n1	0.93	-0.77
CCn1c(NC(=O)c2ccc(F)cc2)nc2ccccc21	0.8	-3.2
Cn1c2ccccc2c2c(C(=O)NCc3ccccn3)cn(C3CCCCC3)c(=O)c21	1	0.076
CN1CCN(S(=O)(=O)c2ccc3c(c2)CCN3C(=O)C2CC2)CC1	0.99	-0.37
Cc1ccc(S(=O)(=O)c2cn(CC(=O)Nc3ccccc3C)c3cc4c(cc3c2=O)OCO4)cc1	0.87	-1.8

From PubChem BioAssay
